UCH37 DUB inh: inhibitors of human UCH37 deubiquitinase, primary screen, biochemical, Ub-AMC cleavage, fluorescence. Ubiquitin carboxyl-terminal hydrolase isozyme L5 (Homo sapiens), Q9Y5K5. purified proteasome/UCH37. inhibition, % (concentration not given with the values). 0.33% of 330,000 active. AID 588478, 2011;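 active = mean of two replicates above 20%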;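 note: 0% = compound-free wells with enzyme and 100% = wells lacking proteasome; stock transfer was 100 nL into about 20 µL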
Target sequence (Q9Y5K5 whole entry, looked up): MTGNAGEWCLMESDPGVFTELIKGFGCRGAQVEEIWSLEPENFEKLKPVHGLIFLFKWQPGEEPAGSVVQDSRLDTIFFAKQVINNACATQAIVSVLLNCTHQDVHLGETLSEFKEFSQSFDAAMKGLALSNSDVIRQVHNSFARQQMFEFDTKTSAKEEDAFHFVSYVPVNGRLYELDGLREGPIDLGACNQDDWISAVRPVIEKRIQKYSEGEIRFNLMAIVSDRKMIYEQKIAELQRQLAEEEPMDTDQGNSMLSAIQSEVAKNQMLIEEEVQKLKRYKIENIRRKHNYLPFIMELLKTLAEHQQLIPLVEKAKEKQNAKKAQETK
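System: Proteasome-associated human UCH37 deubiquitinase; Input: 0.15 nM proteasome in added enzyme buffer; Also added: Ub-AMC substrate from 1 µM stock; Incubation: 30 min compound-proteasome preincubation then 25 min substrate reaction, room temperature; Detection: fluorescence, ex 355 nm, em 460 nm; Read-out: % inhibition of Ub-AMC cleavage fluorescence; Benchmarks: no-proteasome and no-compound wells.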
E coli growth: E. coli growth inhibition, primary screen, OD600 | OD600 absorbance (test concentration not listed) | Escherichia coli growth, 23 h; active compounds read low | 0.21% of 330,000 active | AID 1053175, 2014;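 active = OD600 absorbance below the run mean of sample wells minus 3.6 SD, in any replicate, cut at about 0.56 in these data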;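 note: stock transfer was 300 nL into about 60 µL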
Beta apoptosis: inhibitors of cytokine-induced beta cell apoptosis, primary screen, luminescence | protection from apoptosis, % (test concentration not listed) | INS-1E cytokine-induced death, ATP luminescence, 48 h; percent of positive-control rescue, neutral wells zero | 0.8% of 300,000 active;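 active = all replicates at 75% or more, or half of them and the mean; inconclusive = half reach 75% but not the mean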;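 note: 0% = cytokine-treated negative control wells and 100% = positive control rescue; higher means more ATP so stronger rescue from cytokine killing; wells of about 40 µL received 100 nL stock; the first replicate is given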
T cruzi repl: inhibitors of intracellular T. cruzi growth, primary screen, luminescence, NIH3T3 host cells. T. cruzi beta-gal in NIH3T3, 90 h. inhibition, % (no concentration beside the values). 1.4% of 300,000 active. AID 1885, 2009;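 active = mean inhibition across valid replicates above about 55%, limit read from the data; inconclusive = mean below that limit but half or more replicates reach it; inactive = mean below it, under half of replicates reach it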;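 note: signal also drops with host cell toxicity which is not excluded here; 0% = plate median of DMSO wells and 100% = zero luminescence signal; higher percent means less beta-gal luminescence so fewer parasites; stock transfer was 50 nL into about 50 µL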
rRNA inh HTS: reduced GFP signal of wild-type E. coli, primary screen, bacterial rRNA inhibitor project, GFP/RFP fluorescence, OD600, single point; E. coli WT GFP vs humanized-ribosome RFP mutants, 24 h; active compounds read low; DMSO median 0, no signal -100; GFP signal change (wild-type ribosome), % (test concentration not listed); 1.6% of 350,000 active; AID 720706, 2013;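 active = significant combined selectivity score with lowered wild-type GFP, culture density cut under 30%, mutant RFP and density less affected; inactive = any of these conditions unmet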; note: one replicate is shown; some compounds called inactive have numbers as strong as hits
MLL AF4-AF9 inh: inhibitors of AF4 peptide binding to AF9, primary screen, biochemical, AlphaScreen, biotin-AF4 peptide, FLAG-AF9, single point; AID 651704, 2012; Protein AF-9 (Homo sapiens), P42568; inhibition, % at 10 µM; 0.47% of 350,000 active;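 active = every replicate reaching a set inhibition limit, whatever the replicate mean, cut at about 25% in these data; inconclusive = mean inhibition reaches that limit but some replicates miss it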;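 note: 0% = plate neutral control median and 100% = total signal loss; the record names both 10 and 1 µM as test concentration; the first replicate is given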
Target sequence (P42568 whole entry, looked up): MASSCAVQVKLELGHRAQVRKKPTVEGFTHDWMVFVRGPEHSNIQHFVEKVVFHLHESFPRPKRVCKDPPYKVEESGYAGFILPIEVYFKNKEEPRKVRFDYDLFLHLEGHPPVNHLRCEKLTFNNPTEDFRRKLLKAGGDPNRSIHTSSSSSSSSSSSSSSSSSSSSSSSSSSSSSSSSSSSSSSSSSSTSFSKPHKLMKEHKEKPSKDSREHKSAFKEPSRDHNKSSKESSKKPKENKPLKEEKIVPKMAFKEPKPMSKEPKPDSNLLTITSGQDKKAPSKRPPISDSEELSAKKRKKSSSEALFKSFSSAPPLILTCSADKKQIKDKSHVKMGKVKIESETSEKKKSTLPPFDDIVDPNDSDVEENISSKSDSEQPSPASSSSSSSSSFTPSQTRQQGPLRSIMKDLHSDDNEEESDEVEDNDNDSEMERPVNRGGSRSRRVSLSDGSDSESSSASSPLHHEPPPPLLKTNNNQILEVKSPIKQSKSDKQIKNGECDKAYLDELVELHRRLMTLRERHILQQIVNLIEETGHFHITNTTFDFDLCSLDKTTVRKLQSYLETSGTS
FGF22 binding: binders of human FGF22 protein, primary screen, FGF22 synaptogenesis inhibitor project, biophysical, thermal shift, single point. Fibroblast growth factor 22 (Homo sapiens), Q9HCT0. recombinant FGF22 thermal shift, SYPRO orange fluorescence; percent of sucrose octasulfate shift, DMSO zero. calls only at 9.99 µM. 1.5% of 340,000 active;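 active = melting point raised past a set limit in the mean and every replicate; inconclusive = no clear call; three in four hits are not shown here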
Bfl-1 A1 inh: caspase 3/7 activation in MEF A1-2A-BIM cells, primary screen, A1 inhibitor project, cell-based, luminescence, HTS; 0.066% of 330,000 active; caspase activation, % (no concentration beside the values); AID 2462, 2010; Caspase-Glo 3/7 luminescence, 3 h; percent of clofoctol response, vehicle zero;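 active = over half of replicate activation scores above 10%, or exactly half above 10 with the replicate mean above 10; inconclusive = replicate mean below 10 yet half the replicates above 10; inactive = over half of replicates below 10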;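 note: wells of about 30 µL received 50 nL stock; many hits fall short of the cut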
rRNA inh HTS OD600: also measured in rRNA inh HTS; calls as there; OD600 change, %; measured here: OD600 growth;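 optical density of the mix in the first replicate; 0 = DMSO median and -100 = no signal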
rRNA inh HTS RFP: second read-out of rRNA inh HTS, no call of its own (marks repeat the call); RFP signal change, %; measured here: RFP humanized mutant strains;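 first replicate; 0 = DMSO median and -100 = no signal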
Starred values were filed as active, the others as inactive; i = inactive; ? = inconclusive; / = no result given; & = joins results of further samples.

SMILES	UCH37 DUB inh	E coli growth	Beta apoptosis	T cruzi repl	rRNA inh HTS	rRNA inh HTS OD600	rRNA inh HTS RFP	MLL AF4-AF9 inh	FGF22 binding	Bfl-1 A1 inh
COCCN(Cc1ccccc1)C(=S)Nc1ccc(OC(F)F)cc1	0.7	0.69	-3	-8	-3	-4	-0.5	-1.7	i	1.1
CCOc1ccc(NC(=O)c2cc3ccccc3cc2O)cc1	0.1	0.68	3	12	5	14	-0.1	-7.8	i	-3.9
COc1ccc(NC(=O)NCc2ccccc2F)cc1OC	5.3	0.66	-5	-5	13	13	0.2	-0.5	i	0.0
O=C(CN1CCN(Cc2ccc(F)cc2Cl)CC1)NCc1ccccc1	1.8	0.67	-3	11	-7	-8	-0.4	4.0	i	0.7
COc1ccc([N+](=O)[O-])cc1NC(=O)c1ccc(N2C(=O)CCC2=O)cc1	2.7	0.66	-6	-5	2	5	-5.8	-4.0	i	0.1
C[C@H](NC(=O)c1ccco1)C(=O)Nc1ccc2c(c1)OCO2	4.5	0.72	-1	0	4	-13	3.2	-11	i	2.4
O=C1CN(C(=O)COC(=O)CNS(=O)(=O)/C=C/c2ccccc2)c2ccccc2N1	6.4	0.67	-7	8	9	2	0.8	-0.9	i	2.9
CCn1c(SCC(=O)Nc2cccc(C(C)=O)c2)nnc1C(C)C	1.1	0.7	-6	3	/	/	/	/	/	-0.3
Cc1c(Br)c(=O)oc2c(C)c(O)ccc12	-192	0.68	-3	-2	/	/	/	/	/	1.3
COc1ccccc1NC(=O)Cc1nnc(SCC(=O)Nc2nccs2)n1C	0.3	0.7	1	8	8	9	1.4	-0.4	i	0.6
CCOc1ccccc1CN1CCNC(=O)C1CC(=O)NCc1ccccn1 (stereo not given)	-2.1	0.68	0	0	9	5	0.3	3.2	i	0.1
Cc1cc(C(=O)NCCc2ccc(Cl)cc2)no1	0.3	0.72	0	1	6	-4	-5.1	-0.5	i	-0.1
Nc1nonc1-n1nnc(C(=O)N/N=C/c2cc(Cl)ccc2O)c1CN1CCCCCC1	/	/	91*	56*	-2	5	-0.8	-2.3	i	0.2
CCc1cc(C(=O)N/N=C/c2ccc(O)cc2O)c2ccccc2n1	/	/	93*	33	-18	-19	-1.4	1.8	i	-0.3
CC(=O)Nc1ccc(SCCN2CC[C@@H](C)CCC2=O)cc1	3.8	/	-7	/	0	5	-6.0	-0.5	i	0.3
[O-][N+]1=C2CCC/C(=N\O)C2=NC12CCCCC2	/	/	0	-4	7	1	-2.1	-51	i	-0.4
Cc1nc(N2CCCCC2)sc1C(=O)c1ccc(SCCO)c([N+](=O)[O-])c1	4.8	0.66	-4	41	-20*	-2.1*	-0.3*	14	i	0.4
O=S(=O)(NCC1CCCO1)c1ccc(S(=O)(=O)N(Cc2ccc(F)cc2)C2CCCCC2)cc1 (stereo not given)	2.2	0.72	7	35	10	-2	-4.4	-3.7	i	0.2
COc1ccc(-n2c(C(C)n3nc(C)c([N+](=O)[O-])c3C)n[nH]c2=S)cc1 (stereo not given)	3.8	0.73	5	-10	/	/	/	/	/	-0.7
O=C(Cc1cccs1)Nc1cccc(-c2ccc3nncn3n2)c1	2.9	0.68	6	2	-4	-5	-2.0	-0.8	i	0.2
CC(=O)Nc1ccc(S(=O)(=O)Nc2nnc(CC(C)(C)C)s2)cc1	0.7	0.7	-3	-15	4	0	3.7	2.2	i	1.5
CN(C)NC(=O)c1csnc1-c1c(Cl)cccc1Cl	1.8	0.69	0	-3	16	3	0.9	-4.5	i	0.7
CC1(C)CC(=O)C2=C(C1)Nc1ccccc1NC2c1ccccn1 (stereo not given)	1.9	0.67	-1	-11	/	/	/	/	/	0.0
CC(C)OC(=O)C(NC(=O)c1ccccc1)=C1CCCCC1	1.9	0.71	-10	1	/	/	/	/	/	0.0
CCN1CCN(c2oc(-c3ccc([N+](=O)[O-])cc3)nc2C#N)CC1	4.7	0.69	-3	11	20	6	1.9	1.6	i	-0.5
C[C@H]1CN([C@@H](C)CO)C(=O)c2cccc(NC(=O)Nc3ccc(C(F)(F)F)cc3)c2O[C@@H]1CN(C)S(=O)(=O)c1ccc(Cl)cc1	4.6	/	37	/	2&-1	-5&0	-4.0&0.2	0.5&3.4	i	-0.3
CC(c1ccc(F)cc1)n1cc(C(=O)NCCN(C)C)nn1 (stereo not given)	0.9	0.63	-11	6	-4	5	-3.1	-5.7	i	0.8
CCCC1(C(=O)OCC)NC(c2ccc(N(C)C)cc2)C2C(=O)N(c3ccc(F)cc3)C(=O)C21 (stereo not given)	-2.3	0.73	11	3	/	/	/	/	/	-0.6
CCOC(=O)C1CCCN(C(=O)c2cc3ncc(Br)cn3n2)C1 (stereo not given)	5.6	0.76	1	-5	/	/	/	/	/	-0.5
COc1ccc(C(CCNC(C)c2ccccc2)c2ccc(F)cc2)cc1 (stereo not given)	7.2	0.62	21	33	/	/	/	/	/	1.3
O=C(c1cc2cc(F)ccc2[nH]1)N1CCC(Cc2ccccc2)CC1	0.5	0.71	9	28	-26	-31	-3.8	-6.6	i	-1.4
CN(C)c1ccc(/C=N\Nc2ccccn2)cc1	/	/	32	46	11	7	4.0	8.3	i	-8.8
Cc1ccc(C(=O)NCC(=O)NC2CCC(C)CC2)s1 (stereo not given)	1.6	0.69	0	/	/	/	/	-1.3	i	0.5
CCCN(CC(=O)NC(=O)NC1CCCCC1)CC(=O)Nc1cc(Cl)ccc1Cl	1.1	0.7	-6	/	12	3	2.1	2.4	i	1.2
Cc1ccc(NC2CCCN(C(=O)c3cccc(-c4ncc[nH]4)c3)C2)cc1C (stereo not given)	2.3	0.69	2	8	2	-2	-2.5	7.3	i	0.4
Cc1cccc(NC(=O)CN(c2ccc(C(C)C)cc2)S(=O)(=O)c2c(C)nn(C)c2C)n1	2.3	0.75	5	-2	-10	-10	6.2	-3.5	i	0.4
COc1ccc(Cl)cc1NC(=O)CSc1nnc(C)c(=O)n1N	3.4	0.72	-8	3	18	10	1.5	0.2	i	0.5
O=C(N/C(=C\c1ccc(Br)cc1)C(=O)N1CCCC1)c1ccccc1F	-1.5	0.72	-4	-1	-20	2	3.0	1.0	i	-0.1
CN(Cc1ccno1)C(=O)CC1C(=O)NCCN1CC(c1ccccc1)c1ccccc1 (stereo not given)	1.5	0.62	-1	-7	/	/	/	1.1	i	-0.4
COc1ccc(CC(=O)NCCc2ccc(OC)c(OC)c2)cc1	1.9	0.65	-5	-9	8	9	0.8	3.6	i	0.8
CCOC(=O)c1cnn(-c2ccccc2)c1-n1cccc1C(=O)C(=O)Nc1ccccc1	1.4	0.73	-6	17	/	/	/	/	/	0.0
CC(C)CCOc1cccc(OCC(=O)Nc2ccncc2)c1	0.6	0.66	4	-11	-21	-36	-5.9	-30	i	-0.1
O=C(NCCc1nnc2ccc(N3CCCCCC3)nn12)c1ccccc1F	-2.6	0.73	-6	15	-7	-8	-1.9	-2.6	i	-0.6
C=CCn1c(SCC(=O)NC2CC2)nc2sc(CC)cc2c1=O	-1.0	0.67	-1	14	1	4	-2.4	-1.9	i	0.1
O=C(COc1cccnc1[N+](=O)[O-])N1CCN(S(=O)(=O)c2ccc3ccccc3c2)CC1	0.1	0.71	-7	39	/	/	/	/	/	-1.3
COC(=O)c1ccc(-c2noc(CN(C)Cc3ccncc3C)n2)cc1	-0.1	0.63	-5	4	8	6	0.5	-1.3	/	0.7
CCOC(=O)c1c(C)[nH]c(C)c1C(=O)COC(=O)[C@@H](NC(=O)c1ccco1)C(C)C	2.7	0.67	-1	/	3	5	3.5	9.6	i	0.6
CC(=O)N1CCc2cc(NS(=O)(=O)c3cccs3)ccc21	3.9	0.7	-2	-3	/	/	/	/	/	?
COc1ccc(CN(Cc2ccc(C(=O)O)cc2)C(=S)Nc2ccccc2F)cc1OC	2.3	0.69	5	-16	-3	-4	-2.6	-0.9	i	-0.4
Cc1ccc(C(=O)NCCSc2ccccc2)cc1S(=O)(=O)Nc1ccccc1	3.0	0.69	-4	10	/	/	/	/	/	0.2
CCN1C(=O)NC(c2ccccc2)(c2ccccc2)C1=O	4.1	0.66	-5	-16	7	12	1.2	/	i	-0.1
Cc1ccc(S(=O)(=O)NC(=O)c2ccccc2)cc1C(C)C	4.6	0.64	3	8	-6	-20	-11	-1.4	i	0.1

Rewritten as comma-separated lines: 8 of the compounds above
compound,UCH37 DUB inh,E coli growth,Beta apoptosis,T cruzi repl,rRNA inh HTS,rRNA inh HTS OD600,rRNA inh HTS RFP,MLL AF4-AF9 inh,FGF22 binding,Bfl-1 A1 inh
CC(C)CCOc1cccc(OCC(=O)Nc2ccncc2)c1,0.6,0.66,4,-11,-21,-36,-5.9,-30,i,-0.1
O=C(NCCc1nnc2ccc(N3CCCCCC3)nn12)c1ccccc1F,-2.6,0.73,-6,15,-7,-8,-1.9,-2.6,i,-0.6
C=CCn1c(SCC(=O)NC2CC2)nc2sc(CC)cc2c1=O,-1.0,0.67,-1,14,1,4,-2.4,-1.9,i,0.1
O=C(COc1cccnc1[N+](=O)[O-])N1CCN(S(=O)(=O)c2ccc3ccccc3c2)CC1,0.1,0.71,-7,39,/,/,/,/,/,-1.3
COC(=O)c1ccc(-c2noc(CN(C)Cc3ccncc3C)n2)cc1,-0.1,0.63,-5,4,8,6,0.5,-1.3,/,0.7
CCOC(=O)c1c(C)[nH]c(C)c1C(=O)COC(=O)[C@@H](NC(=O)c1ccco1)C(C)C,2.7,0.67,-1,/,3,5,3.5,9.6,i,0.6
CC(=O)N1CCc2cc(NS(=O)(=O)c3cccs3)ccc21,3.9,0.7,-2,-3,/,/,/,/,/,?
COc1ccc(CN(Cc2ccc(C(=O)O)cc2)C(=S)Nc2ccccc2F)cc1OC,2.3,0.69,5,-16,-3,-4,-2.6,-0.9,i,-0.4

Screening data: PubChem BioAssay, several laboratories

Only part of the results is shown; count on the stated rates, not on these rows.
